Bioassay records from PubChem.
Cruzain inh Det – blocks cruzain activity in presence of Triton detergent; purified cruzain, Z-FR-AMC fluorescence, 0.01% Triton; 0.43% of 200,000 active; P25779; Potency, µM, inactives show max response, negative = inhibition, actives largely listed as inhibitors; active = well fitted curve in the direction sought with a large enough effect; inconclusive = small, poorly fitted or top-dose-only effect, or another doubt; inactive = no such curve, though single readings can be large; an effect the other way counts as inactive or inconclusive;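 also: plate controls were neutral wells for no effect and buffer without enzyme for full effect; nearly all actives have a fitted effect of over 40% in size; top concentration of the series not given in the record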
Target sequence (P25779 123-467 limits assumed): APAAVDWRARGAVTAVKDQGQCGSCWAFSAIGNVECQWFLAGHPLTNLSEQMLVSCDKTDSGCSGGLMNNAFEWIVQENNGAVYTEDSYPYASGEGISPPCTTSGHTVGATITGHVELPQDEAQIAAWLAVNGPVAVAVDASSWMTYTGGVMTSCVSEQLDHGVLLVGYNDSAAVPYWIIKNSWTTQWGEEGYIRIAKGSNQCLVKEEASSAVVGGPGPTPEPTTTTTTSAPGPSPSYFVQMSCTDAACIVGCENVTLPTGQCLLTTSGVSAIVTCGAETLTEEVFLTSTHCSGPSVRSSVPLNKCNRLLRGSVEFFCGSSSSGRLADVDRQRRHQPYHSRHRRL
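15 min RT preincubation of 1.5 nM cruzain with compound, then 2 uM Z-FR-AMC added; kinetic AMC fluorescence, 60 s delta. Triton X-100 0.01%, pH 5.5.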
Lassa entry inh – inhibitors of Lassa virus binding or cell entry. Lassa virus pseudotype entry inhibition, cell reporter; control for the full effect not named in the record. Potency, µM (series often up to 37.9 µM), without a hit: at the highest dose activity change, negative = inhibition, usual class: inhibitors. 1.2% of 300,000 active; active means well fitted inhibition curve with a large enough effect; inconclusive means small, poorly fitted or top-dose-only effect, or effect the other way; inactive means flat fitted curve, though single readings scatter; tested in HEK293 cells; also: % is scaled to controls: 0 for no effect and ±100 for the full control effect; nearly all actives have a fitted effect of over 50% in size; luciferase read-out
Cruzain noTriton – cruzain (T. cruzi) inhibition without detergent; P25779; purified cruzain, Z-FR-AMC fluorescence, no detergent; Potency, µM, for inactives: max response, negative = inhibition, most hits filed as inhibitors; 2.3% of 200,000 active; active = well fitted curve in the direction sought with a large enough effect; inconclusive = small, poorly fitted or top-dose-only effect, or another doubt; inactive = no such curve, though single readings can be large; an effect the other way counts as inactive or inconclusive;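 also: plate controls were enzyme without inhibitor for no effect and buffer without enzyme for full effect; nearly all actives have a fitted effect of over 40% in size; top concentration of the series not given in the record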
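Detergent-free condition (0.00005% Triton X-100) in acetate buffer pH 5.5 with DTT. 1.5 nM enzyme and compound were pre-mixed 15 min, then 2 uM Z-FR-AMC substrate added; reaction progress from fluorescence change between first and third reads (60 s).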
Marburg entry inh – inhibitors of Marburg virus binding or cell entry; Marburg virus pseudotyped entry inhibition, cell reporter; control for the full effect not named in the record; about a third of the inactives were read at about 46 µM; Potency, µM (highest dose often 37.8 µM), for the others: top-dose activity change, negative = inhibition, most hits filed as inhibitors; 1.8% of 300,000 active; AID 540276; active = well fitted inhibition curve with a large enough effect; inconclusive = small, poorly fitted or top-dose-only effect, or effect the other way; inactive = flat fitted curve, though single readings scatter; tested in HEK293 cells; about a fifth of its hits are not listed in these tables; also: % is scaled to controls: 0 for no effect and ±100 for the full control effect; luciferase read-out
2A StopGo – lowers the luciferase signal of an FMDV 2A StopGo reporter | Potency, µM (highest dose often 57.9 µM), without a hit: at the top dose signal change, negative = less light | human cells with a luciferase reporter of 2A StopGo recoding; control for the full effect not named in the record | 1.2% of 410,000 active | AID 1159524; active = well fitted falling curve with a large enough effect; inconclusive = small, poorly fitted or top-dose-only effect; inactive = no such curve, though single readings can be large or run the other way; tested in HEK293T cells; also: % is scaled to controls: 0 for no effect and ±100 for the full control effect; nearly all actives have a fitted effect of over 45% in size; luciferase light after 4 h
RE007 growth inh – less growth of the S. pombe RE007 Vpr strain | S. pombe RE007 Vpr strain, BacTiter-Glo ATP luminescence, 24 h; control for the full effect not named in the record | Potency, µM (series often up to 92.2 µM), without a hit: at the top dose activity change, negative = less growth | 0.21% of 360,000 active | AID 651644; active = well fitted falling curve with a large enough effect; inconclusive = small, poorly fitted or top-dose-only effect; inactive = no such curve, though single readings can be large or run the other way;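 also: % is scaled to controls: 0 for no effect and ±100 for the full control effect; nearly all actives have a fitted effect of over 50% in size; the assay follows cell death caused by Vpr and the record does not say whether a fall means rescue or toxicity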
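Fission yeast strain RE007, carrying one chromosomally integrated HIV-1 vpr copy, was seeded at OD 0.01 in PMG+AL medium with 23 nL pinned compound. After 24 h at 30 °C and 99% humidity, viability was read by BacTiter-Glo luminescence.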
NS1 function inh – influenza NS1 inhibition | S. cerevisiae slowed by influenza A NS1, growth recovery by OD600 | Potency, µM (top dose mostly 46.1 µM), without a hit: top-dose activity, positive = more growth | 0.4% of 270,000 active; also: actives are rising curves; nearly all actives have a fitted effect of over 50% in size
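Compounds were scored for reversing the slow growth caused by influenza A NS1 in S. cerevisiae, measured by optical density at 600 nm. Assay medium contained 2% galactose at pH 6.0; NS1-free yeast of the same strain were the positive control.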
SARS PLP yeast – SARS-CoV PLP inhibition in yeast | S. cerevisiae expressing SARS-CoV PLpro, growth rescue; control for the full effect not named in the record | Potency, µM (top dose mostly 32.9 µM), for the others: top-dose activity, positive = growth rescue | 0.19% of 330,000 active | AID 485353; also: 0% is about no effect; nearly all actives have a fitted effect of over 55% in size; growth read by luminescence after 48 h
An asterisk follows results filed as active; u = inconclusive; x = not tested or not shown; & = joins results of further samples; [ ] = another dose, or the depositor's remark. Unless noted, calls follow the shape of the dose curve; as a rule, active means well fitted rising curve with a large enough effect; inconclusive means small, poorly fitted or top-dose-only effect; inactive means no such curve, though single readings can be large or run the other way. Potency is read from the fitted curve at half-maximal effect.

1) O=C1CCCC/C1=C/NCc1ccccc1
2) S=c1[nH]nc(-c2ccco2)n1-c1ccccc1Cl
3) Cc1c(Cl)cccc1-c1ccc(C(=O)Nc2ccc(F)cc2)o1
4) Cc1ccc(NC(=O)Cn2nnc3ccccc3c2=O)cc1C
5) c1ccc(CSc2nnc(C3CCNCC3)o2)cc1
6) COC(=O)c1ccc(NC(=O)N(c2ccccc2)c2ccccc2)cc1
7) O=C(Nc1ccc(S(=O)(=O)Nc2nccs2)cc1)C(F)(F)F
8) CC(=O)N1CCCN(Cc2cn(-c3ccc(C)cc3)nc2-c2cccc(C)c2)CC1
entry no. | 1 | 2 | 3 | 4 | 5 | 6 | 7 | 8
Cruzain inh Det | x | x | -9.5% | x | 0.0% | x | x | x
Lassa entry inh | 10% | u | 4%[46.1 µM] | -1% | -2%[46.1 µM] | x | 0% | x
Cruzain noTriton | x | x | 6% | x | -11% | x | x | x
Marburg entry inh | 0%[46.1 µM] | 2%[46.1 µM] | x | -4%[46.1 µM] | 8%[46.1 µM] | x | -4%[46.1 µM] | x
2A StopGo | 61%[activator] | 45%[activator] | 2% | 4% | -9% | -17% | 6% | -1%
RE007 growth inh | 7% | -16% | x | 22% | x | 8% | -8% | 5%
NS1 function inh | x | -4% | x | 7% | x | -1% | x | 2%
SARS PLP yeast | 0% | 1% | x | -3% | x | 7% | x | 0%

9) COc1ccsc1C(=O)Nc1ccc(F)cc1F
10) CCNC(=O)c1cc2c(=O)n3cccc(C)c3nc2n(CCc2ccccc2)c1=N
11) CC(C)(C)c1ccc(C(=O)NN=C2CCCC2)cc1
12) COCCCNC(=O)C1CCN(C(=O)c2cc3sccc3n2Cc2ccc(Cl)cc2)CC1
13) COc1ccccc1NC(=O)CSc1oc(-c2ccco2)nc1S(=O)(=O)c1ccc(Br)cc1
14) COC(=O)c1c(C)sc(-c2c(-c3ccc4c(c3)OCCO4)[nH]c3c2c(=O)[nH]c(=O)n3C)c1O
15) C[C@H](NC(=O)OCc1ccccc1)c1nnc([C@H](C)NC(=O)OCc2ccccc2)o1
16) Cc1cccc(/C(N)=N/OC(=O)c2cccs2)c1
entry no. | 9 | 10 | 11 | 12 | 13 | 14 | 15 | 16
Cruzain inh Det | x | u | x | -2.7% | -4.2% | -1.4% | x | 1.5%
Lassa entry inh | 16% | 4% | -8% | x | 5%[46.1 µM] | -14%[46.1 µM] | x | -3%
Cruzain noTriton | x | u | x | u | -18% | 8% | x | 0%
Marburg entry inh | -3%[46.1 µM] | 8%&8% | -1% | u | -3%[46.1 µM] | -20%[46.1 µM] | x | -18%
2A StopGo | 43%[activator] | -22% | 14% | u | 9% | -2% | 7% | 20%
RE007 growth inh | -24% | -4% | 4% | x | x | x | -1% | u
NS1 function inh | -3% | 8% | 20% | x | x | x | 5% | -199%
SARS PLP yeast | 1% | 1% | 7% | x | x | x | -3% | -34%

17) CC(C)(C)C1CCC(C(=O)OCC(=O)c2ccc[nH]2)CC1 (stereo not drawn)
18) CCOc1ncccc1C(=O)OCCN1C(=O)c2ccccc2C1=O
19) CC(=O)Nc1ccc(N/C=C(\C#N)S(=O)(=O)c2ccc(Cl)cc2)cc1
20) CCSc1nnc(NC(=O)[C@H](C)NC(=O)c2ccccc2Cl)s1
21) Cc1ccc(CNC(=O)C(NS(=O)(=O)c2cccc3nsnc23)c2ccccc2)cc1 (stereo not drawn)
22) CCCNC(=O)C1CC(=O)N(c2ccc(OCc3ccc(F)cc3)cc2)C1 (stereo not drawn)
23) Cn1c(=O)c2c(nc(SCc3nn[nH]n3)n2Cc2ccccc2F)n(C)c1=O
24) CCC1CN(C(=O)N2CCC(C(=O)NCc3ccco3)CC2)c2cc(C)ccc2O1 (stereo not drawn)
entry no. | 17 | 18 | 19 | 20 | 21 | 22 | 23 | 24
Cruzain inh Det | -7.9% | -0.5% | x | x | -2.3% | x | -5.2% | -5.9%
Lassa entry inh | 1% | -2% | 1%[46.1 µM] | 15% | -16%&1% | x | 6% | u
Cruzain noTriton | -12% | -1% | x | x | -9% | x | -9% | 3%
Marburg entry inh | -21% | 2%[46.1 µM] | 7%[46.1 µM] | 19%[46.1 µM] | 4%&-2% | x | 4% | -11%&-11%[46.1 µM]
2A StopGo | -19% | -24% | 27% | 11% | 17% | 59%[activator] | 0% | u
RE007 growth inh | 2% | 8% | 5% | -6% | -20% | 1% | 16% | 2%
NS1 function inh | -38% | -15% | 3% | x | 1% | -3% | 0% | -4%
SARS PLP yeast | 12% | 5% | 1% | -5% | -38% | -4% | 12% | 23%

Limited to 2A StopGo, RE007 growth inh and SARS PLP yeast, for 2 of the compounds above:
No.	Structure	2A StopGo	RE007 growth inh	SARS PLP yeast
19	CC(=O)Nc1ccc(N/C=C(\C#N)S(=O)(=O)c2ccc(Cl)cc2)cc1	27%	5%	1%
20	CCSc1nnc(NC(=O)[C@H](C)NC(=O)c2ccccc2Cl)s1	11%	-6%	-5%

Later entries.
25) CCC(C)C(NC=C1C(=O)OC(C)(C)OC1=O)C(=O)O (stereo not drawn)
26) Cc1cc(C)c(OCCCCN(C)C)c(Br)c1
27) Cc1ccc(C)c(N2N=C(C(=O)OCc3nnc(-c4ccccc4)o3)CCC2=O)c1
28) OC(c1ccccc1)(c1ccccc1)C1CCCN1 (stereo not drawn)
29) CCCn1c(SCC(=O)NCC(=O)Nc2ccc(F)c(F)c2F)nc2ccccc2c1=O
30) O=C(NC(Cc1ccccc1)c1nc2ccccc2[nH]1)c1ccc(Cl)c([N+](=O)[O-])c1 (stereo not drawn)
31) CCCn1cc(S(=O)(=O)c2ccc(OC)cc2)c(=O)c2cc(OC)ccc21
32) O=C(O)[C@H]1CCCC[C@H]1C(=O)Nc1ccc(Nc2ccccc2)cc1
entry no. | 25 | 26 | 27 | 28 | 29 | 30 | 31 | 32
Cruzain inh Det | 2.8% | x | x | -9.3% | x | -17% | x | -3.4%
Lassa entry inh | 2% | 27% | 4% | 11% | -3% | -20% | 1%[46.1 µM] | 14%
Cruzain noTriton | 3% | x | x | -12% | x | -2% | x | -16%
Marburg entry inh | u | u | 16% | -23% | -11% | u | -10%[46.1 µM] | -5%
2A StopGo | 13% | -1% | 8% | 2% | -12% | u | -10% | -2%
RE007 growth inh | -4% | 0% | 3% | 7% | -12% | 9% | -5% | u
NS1 function inh | -2% | -1% | x | -16% | x | 2% | 3% | 18%
SARS PLP yeast | 5% | -1% | 2% | -3% | 0% | -2% | 3% | -12%

33) CCOC(=O)c1c(C)[nH]c(CCC(=O)NCCCN2CCN(c3cccc(Cl)c3)CC2)c1C
34) COc1ccc(Cn2c(O)c(/C=C3/C=CC=N3)c(=O)[nH]c2=O)cc1
35) COc1ccc(Cc2noc(-c3ccc(OC)c(OC)c3)n2)cc1OC
36) Cc1nc2sccn2c(=O)c1S(=O)(=O)Nc1ccc(N2CCN(C)CC2)cc1
37) O=C(CC1C(=O)NCCN1Cc1cccc(F)c1)NCCCOc1cccnc1 (stereo not drawn)
38) CCOC(=O)C(CC(=O)Nc1nc(C(C)=O)c(C)s1)C(C)c1ccccc1 (stereo not drawn)
39) COc1ccc(Cl)cc1NC(=O)NCc1noc2ccccc12
40) Cc1cccc(-n2ccc(=O)c(C(=O)O)n2)c1
entry no. | 33 | 34 | 35 | 36 | 37 | 38 | 39 | 40
Cruzain inh Det | -1.1% | x | -3.5% | -3.2% | x | x | -8.8% | x
Lassa entry inh | -3%[46.1 µM] | x | -41% | 29%[46.1 µM] | x | -16%[46.1 µM] | -7%[46.1 µM] | 19%[46.1 µM]
Cruzain noTriton | -4% | x | u | 6% | x | x | -3% | x
Marburg entry inh | x | x | 2% | -15%[46.1 µM] | x | u | x | 13%[46.1 µM]
2A StopGo | u | 14% | -30% | -18%&-23% | -12% | -24% | -11% | -8%
RE007 growth inh | x | -6% | 7% | 9% | 7% | 1% | x | 22%
NS1 function inh | x | -53% | -14% | -7% | 2% | -30% | x | 4%
SARS PLP yeast | x | -4% | 3% | 4% | 15% | 0% | x | 0%

41) O=C(O)c1ccccc1SCc1csc(-c2ccccc2)n1
42) Cc1c(N/C(=N/S(=O)(=O)c2ccc(Cl)cc2)c2ccccc2)c(=O)n(-c2ccccc2)n1C
43) O=C(NCc1ccc(F)cc1)C(Cc1ccccc1)NS(=O)(=O)c1cccs1 (stereo not drawn)
44) CCCCOc1ccc(OC(=O)c2cccnc2)cc1
45) COc1cccc2c(=O)n(CC(=O)Nc3cccc(F)c3)ccc12
46) COc1ccc(-c2noc(N(c3nc(-c4ccc(OC)c(OC)c4)no3)c3ccccc3OC)n2)cc1OC
47) CCOC(=O)C1=C(O)/C(=C/c2ccc(-c3ccccc3C(=O)O)o2)SC1=Nc1ccc(OC)cc1
48) CCN1CCc2nc(SCC(=O)Nc3ccc(OC)cc3)c(C#N)cc2C1
49) CCN(Cc1nc2ccccc2n1C)c1ccccc1
50) COc1ccc(C)cc1NCc1nnc2n1CCCCC2
51) COc1cc(C=O)ccc1Oc1cnccn1
entry no. | 41 | 42 | 43 | 44 | 45 | 46 | 47 | 48 | 49 | 50 | 51
Cruzain inh Det | x | -2.3% | 4.4% | -1.7% | 4.6% | -0.4% | -21% | -30% | x | 1.5% | x
Lassa entry inh | 10%[46.1 µM] | -13% | -12% | -7% | x | 4%[46.1 µM] | 20% | 6% | 16%[46.1 µM] | 4%[46.1 µM] | -7%
Cruzain noTriton | x | 24% | 8% | 1% | -18% | -7% | u | u | x | -7% | x
Marburg entry inh | u | -32% | -6% | -14% | x | 22%[46.1 µM] | 28% | 5% | 3%[46.1 µM] | x | -4%[46.1 µM]
2A StopGo | 45%[activator] | x | x | 20% | -15% | 6% | -19% | -26% | -8% | 10% | 6%
RE007 growth inh | -11% | x | -8% | 0% | -11% | x | -3% | 12% | -20% | x | 17%
NS1 function inh | 5% | 2% | -2% | -86% | -82% | x | 13% | u | -15% | x | 0%
SARS PLP yeast | 8% | 9% | -8% | -6% | 7% | x | 4% | 2% | 6% | x | 1%
